Lassa entry inh: Lassa virus entry inhibition; Lassa virus pseudotype entry inhibition, cell reporter; control for the full effect not named in the record; Potency, µM (doses to about 37.9 µM), for the others: at the highest dose activity change, negative = inhibition, usual class: inhibitors; actives 1.2% (n = 300,000); active means well fitted inhibition curve with a large enough effect; inconclusive means small, poorly fitted or top-dose-only effect, or effect the other way; inactive means flat fitted curve, though single readings scatter; tested in HEK293 cells; note: % is set by controls: 0 for no effect and ±100 for the full control effect; nearly all actives have a fitted effect of over 50% in size; luciferase read-out
Cruzain noTriton: blocks cruzain activity in detergent-free assay; purified cruzain, Z-FR-AMC fluorescence, no detergent; actives 2.3% (n = 200,000); Potency, µM, without a hit: max response, negative = inhibition, actives largely listed as inhibitors; P25779;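 note: plate controls were enzyme without inhibitor for no effect and buffer without enzyme for full effect; nearly all actives have a fitted effect of over 40% in size; top concentration of the series not given in the record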
Target sequence (P25779 123-467 limits assumed): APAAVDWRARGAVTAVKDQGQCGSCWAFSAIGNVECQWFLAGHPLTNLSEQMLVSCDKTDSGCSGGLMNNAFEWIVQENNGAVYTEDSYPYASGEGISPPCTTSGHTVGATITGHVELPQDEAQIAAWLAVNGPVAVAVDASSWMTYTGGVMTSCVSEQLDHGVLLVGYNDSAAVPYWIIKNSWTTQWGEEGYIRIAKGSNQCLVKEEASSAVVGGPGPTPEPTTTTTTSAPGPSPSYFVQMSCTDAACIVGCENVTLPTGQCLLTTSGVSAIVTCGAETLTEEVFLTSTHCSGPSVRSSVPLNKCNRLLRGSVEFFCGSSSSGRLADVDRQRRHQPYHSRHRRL
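Purified cruzain at 1.5 nM, pre-incubated 15 min with compound at room temperature in 100 mM sodium acetate pH 5.5, 5 mM DTT, 0.00005% Triton X-100. Reaction started with 2 uM Z-FR-AMC; AMC fluorescence increase over 60 s gives rate.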
SARS PLP yeast: blocks SARS-CoV papain-like protease in a yeast assay; Potency, µM (titrated, usually from 32.9 µM), for inactives: top-dose activity, positive = growth rescue; AID 485353; S. cerevisiae expressing SARS-CoV PLpro, growth rescue; control for the full effect not named in the record; actives 0.19% (n = 330,000); active means well fitted rising curve with a large enough effect; inconclusive means small, poorly fitted or top-dose-only effect; inactive means no such curve, though single readings can be large or run the other way; note: 0% is about no effect; nearly all actives have a fitted effect of over 55% in size; growth read by luminescence after 48 h
2A StopGo: FMDV 2A StopGo reporter, luciferase signal; AID 1159524; human cells with a luciferase reporter of 2A StopGo recoding; control for the full effect not named in the record; actives 1.2% (n = 410,000); Potency, µM (top dose mostly 57.9 µM), for inactives: top-dose signal change, negative = less light; active = well fitted falling curve with a large enough effect; inconclusive = small, poorly fitted or top-dose-only effect; inactive = no such curve, though single readings can be large or run the other way; tested in HEK293T cells; note: % is set by controls: 0 for no effect and ±100 for the full control effect; nearly all actives have a fitted effect of over 45% in size; luciferase light after 4 h
Marburg entry inh: Marburg virus entry inhibition; Marburg virus pseudotyped entry inhibition, cell reporter; control for the full effect not named in the record; about a third of the inactives were read at about 46 µM; Potency, µM (doses to about 37.8 µM), for the others: top-dose activity change, negative = inhibition, hits mostly inhibitors; actives 1.8% (n = 300,000); AID 540276; active = well fitted inhibition curve with a large enough effect; inconclusive = small, poorly fitted or top-dose-only effect, or effect the other way; inactive = flat fitted curve, though single readings scatter; tested in HEK293 cells; about a fifth of its hits are not listed in these tables; note: % is set by controls: 0 for no effect and ±100 for the full control effect; luciferase read-out
RE007 growth inh: less growth of the S. pombe RE007 Vpr strain. S. pombe RE007 Vpr strain, BacTiter-Glo ATP luminescence, 24 h; control for the full effect not named in the record. Potency, µM (doses to about 92.2 µM), for the others: at the top dose activity change, negative = less growth. actives 0.21% (n = 360,000). AID 651644; active = well fitted falling curve with a large enough effect; inconclusive = small, poorly fitted or top-dose-only effect; inactive = no such curve, though single readings can be large or run the other way;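 note: % is set by controls: 0 for no effect and ±100 for the full control effect; nearly all actives have a fitted effect of over 50% in size; the assay follows cell death caused by Vpr and the record does not say whether a fall means rescue or toxicity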
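Fission yeast RE007 carrying one integrated HIV-1 vpr copy, seeded at OD 0.01 in PMG+AL medium with 23 nL pinned compound. Grown 24 h at 30 degrees; viability read by BacTiter-Glo luminescence after 5 min.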
Cruzain inh Det: cruzain (T. cruzi) inhibition with detergent | P25779 | purified cruzain, Z-FR-AMC fluorescence, 0.01% Triton | Potency, µM, for inactives: max response, negative = inhibition, usual class: inhibitors | actives 0.43% (n = 200,000);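 note: plate controls were neutral wells for no effect and buffer without enzyme for full effect; nearly all actives have a fitted effect of over 40% in size; top concentration of the series not given in the record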
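Z-FR-AMC hydrolysis (2 uM substrate) by cruzain (1.5 nM) monitored kinetically at ex 360/em 450 nm after 15 min room-temperature compound exposure; 0.01% Triton X-100, pH 5.5, 5 mM DTT.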
NS1 inh: blocks influenza NS1 protein function; S. cerevisiae slowed by influenza A NS1, growth recovery by OD600; Potency, µM (titrated, usually from 46.1 µM), without a hit: top-dose activity, positive = more growth; actives 0.4% (n = 270,000); AID 2326; active means well fitted rising curve with a large enough effect; inconclusive means small, poorly fitted or top-dose-only effect; inactive means no such curve, though single readings can be large or run the other way; note: nearly all actives have a fitted effect of over 50% in size
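Recovery from NS1-induced slow growth read by OD600 in budding yeast switched to galactose assay medium (pH 6.0, -URA) at 1:100 dilution. Compound 23 nl per well; the matching strain lacking NS1 serves as control.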
Starred values were filed as active, the others as inactive; ? = inconclusive; / = not tested or not shown; & = joins results of further samples; [ ] = dose if it differs, or a comment. Unless noted, calls come from the whole dose curve; as a rule, active = well fitted curve in the direction sought with a large enough effect; inconclusive = small, poorly fitted or top-dose-only effect, or another doubt; inactive = no such curve, though single readings can be large; an effect the other way counts as inactive or inconclusive. Potency is the fitted concentration of half-maximal effect.

SMILES	Lassa entry inh	Cruzain noTriton	SARS PLP yeast	2A StopGo	Marburg entry inh	RE007 growth inh	Cruzain inh Det	NS1 inh
Cc1ccc(Cl)cc1NC(=O)C1CCN(c2nnc(C)c3c(C)n(-c4ccccc4)nc23)CC1	-7%[46.1 µM]	-2%	/	-16%	/	/	-2.2%	/
CCOc1ccc(NC(=O)Cc2c[nH]c3ccccc23)cc1	3%[46.1 µM]	-5%	/	22%	/	/	-2.8%	/
CC(=O)Nc1ccc(NC(=O)CCCN2C(=O)c3ccccc3C2=O)cc1	?	/	-2%	9%	9%	0%	/	2%
COc1ccc(C(=O)Nc2ccc(S(=O)(=O)Nc3ncccn3)cc2)cc1OC	-2%[46.1 µM]	/	1%	19%	2%	1%	/	-77%
CCN(CC)S(=O)(=O)c1ccc(OC)c(NC(=O)c2ccc([N+](=O)[O-])cc2)c1	-13%	/	2%	-10%	-9%[46.1 µM]	3%	/	/
O=C(O)c1ccccc1C(=O)Nc1ccccc1[N+](=O)[O-]	?	/	-1%	-7%	-9%[46.1 µM]	7%	/	2%
CCOc1ccc(/C=N/NC(=O)C(=O)NCc2ccco2)cc1	-8%	-26%	-1%	-14%	?	4%	-1.4%	-9%
CCc1ccc(C(O)(c2ccccc2OC)C(CN2CCOCC2)c2ccccc2)cc1 (stereo unspecified)	-30%	/	-9%	-23%	?	-27%	/	/
CCCCn1nc(C(=O)NC2CCCCCC2)c2ccccc2c1=O	-21%	/	0%	3%	?	-12%	/	/
CCCCc1nccn1CCn1ccnc1CCCC	10%	-8%	-7%	-14%	-24%	2%	5.3%	-4%
Cc1nc(SC2CC(=O)N(c3cc(Cl)cc(Cl)c3)C2=O)nc2c1CCCC2 (stereo unspecified)	-6%	-7%	-15%	?	6%	-25%	-2.6%	0%
NC1=NC[C@H](Cc2ccccc2)N1CCc1cc(C(F)(F)F)cc(C(F)(F)F)c1	/	/	1%	-27%	/	16%	/	-4%
Cc1ccccc1Nc1c(-c2ccc(O)cc2)nc2c(C)cccn12	-12%[46.1 µM]	2%	/	-9%	8%[46.1 µM]	/	-12%	/
Cc1cc(C)c(NC(=O)C2=CCN(S(=O)(=O)c3ccc(F)cc3)CC2)c(C)c1	6%	4%	21%	-24%	0%	-14%	-2.3%	6%
COc1cc2c(=O)c(S(=O)(=O)c3ccc(F)cc3)cn(Cc3ccccc3C)c2cc1OC	-28%[46.1 µM]	?	/	-15%	-1%[46.1 µM]	/	3.9%	/
COc1ccc(CC(=O)Nc2nc(C)cs2)cc1OC	-1%	-21%	0%	-4%	?	-5%	0.4%	-7%
CCCCNC(=O)N1CCN(C(=O)C2CCCO2)CC1 (stereo unspecified)	3%[46.1 µM]	/	0%	1%	2%[46.1 µM]	17%	/	/
O=C(O)CCn1cnc2onc(-c3ccccc3Cl)c2c1=O	15%[46.1 µM]	-15%	/	30%	-10%[46.1 µM]	/	-1.6%	/
CCOC(=O)c1c(NC(=O)Cn2nnc(-c3ccc(Cl)cc3)n2)sc(C)c1C	-5%	-10%	-1%	-21%	8%	-1%	1.7%	-3%
CCOc1ccc(N=Cc2c(O)n(CCc3ccc(OC)c(OC)c3)c(=O)[nH]c2=O)cc1	-17%	/	1%	7.9µM*	?	-2%	/	-1%
Cc1ccc(NC(=O)CN2CCCCCC2)c(Br)c1	0%	-1%	2%	56%[activator]	?	-13%	1.7%	?
COCCCn1c(C(=O)N2CCOCC2)cc2c(=O)n3cccc(C)c3nc21	-10%	/	/	-15%	-12%	4%	/	/
Cn1c(C(=O)Nc2ccc3c(c2)OCCO3)cc2c(=O)n(C)c3ccccc3c21	/	?	3%	-11%	/	7%	-2.5%	-37%
CSCCC(NC(=O)c1ccco1)C(=O)O (stereo unspecified)	15%	5%	3%	-12%	15%[46.1 µM]	1%	3.2%	-4%
CC(C)N(C(=O)COC(=O)CNC(=O)c1ccc(Br)cc1)c1ccccc1	-10%	16µM*	5%	-22%	?	19%	16µM*	1%
CC(=O)Cn1cnc2c(sc3nc(C)cc(C)c32)c1=O	2%[46.1 µM]	/	-2%	12%	?	-3%	/	-2%
CCCC(=O)Nc1nnc(S(=O)(=O)N2CCCCCC2)s1	6%[46.1 µM]	-10%	4%	-8%&-11%	/	-5%	-4.8%	4%
COc1ccc(C2CC(=O)C(C=NCCCO)=C(O)C2)cc1 (stereo unspecified)	/	/	2%	6%	/	9%	/	11%
CCS(=O)(=O)NCc1ccc2c(c1)cc(C)n2C	/	-10%	-4%	13%	/	4%	-3.5%	11%
O=C(C#Cc1ccccc1)Nc1ccccc1F	/	/	-11%	13%	/	-29%	/	-39%
CCOC(=O)c1sc2ncn(C(CC)C(=O)OCC)c(=O)c2c1C (stereo unspecified)	8%	4%	-3%	15%	-1%	-2%	4.1%	-38%
Fc1ccc(NC(=S)Nc2ccccc2N2CCOCC2)cc1Cl	9%	/	-16%	-5%	?	2%	/	/
COCCCn1c(SCC(=O)NCc2ccco2)nc2sc3c(c2c1=O)CCC3	4%	?	-6%	4%	-14%	12%	-4.4%	-10%
CCOc1nc(C)ccc1-c1noc(-c2ccccn2)n1	19%	2%	11%	3%	?	-25%	4.8%	-30%
CCCCNC(=S)N/N=C/c1ccc(C)s1	-17%	2%	?	17%	1%	-4%	-5.3%	-12%
COc1ccccc1-c1nc(SCC(=O)N(C)c2ccccc2)c2c(=O)n(C)c(=O)n(C)c2n1	-5%	/	0%	-26%	0%[46.1 µM]	11%	/	/
CCn1cc(C2Nc3ccccc3C(=O)N2O)c(C)n1 (stereo unspecified)	21%	-7%	-6%	18%	-2%	-12%	4.4%	?
O=c1c2ccccc2nc(SCc2nc(-c3ccccc3)no2)n1-c1ccc(F)cc1	/	25µM*	-8%	-10%	/	-13%	-3.2%	-43%
O=C(C1CCN(S(=O)(=O)N2CCC3(CC2)OCCO3)CC1)N1CCCCC1	-2%	14%	-47%	0%	15%	9%	-0.8%	-17%
Cc1ccc(Nc2nc(N)nc(CN3CCC(C)CC3)n2)c(C)c1	3%	/	/	6%	22%	-10%	/	/
CC1=NN(c2ccc(Cl)c(C(=O)O)c2)C(=O)/C1=C/c1ccc(-c2ccccc2[N+](=O)[O-])o1	12%[46.1 µM]	/	3%	-13%	18%[46.1 µM]	-13%	/	-4%
CC1CCCC(NC(=O)CSc2n[nH]c(N)n2)C1C (stereo unspecified)	17%	/	2%	1%	?	7%	/	/
COc1cccc(/C=C2\SC(=S)N(CC3CCCO3)C2=O)c1 (stereo unspecified)	?	10%	-16%	7%	?	7%	-3.4%	-19%
O=C(NCc1nnc(SCC(=O)N2CCN(c3ccccc3)CC2)o1)c1ccc(F)cc1	1%	/	3%	-24%	3%	-6%	/	14%
O=C(Cn1nc(C(F)(F)F)c2c1CCC2)NCc1ccc(F)cc1	2%	-8%	7%	-22%	-20%	-3%	3.9%	0%
CCc1ccc(S(=O)(=O)NCCc2cn3ccsc3n2)s1	/	?	-4%	52%[activator]	/	4%	-1.3%	-6%
CC(=O)Nc1cccc(-c2nc(-c3ccccc3)no2)c1	21%[46.1 µM]	11%	/	41%[activator]	/	/	-5.6%	/
COc1ccc(NC(=O)c2oc3ccccc3c2NC(=O)Cc2coc3c(C)c(C)ccc23)cc1	-9%[46.1 µM]	?	/	2%	-18%[46.1 µM]	/	-4.3%	/
COc1ccc(S(=O)(=O)Nc2ccccc2C(=O)N2CCCC2)cc1OC	/	/	2%	-12%	/	7%	/	-4%
CSC(=CC(=O)c1ccc(F)cc1)SC	1%	/	-3%	0%	16%[46.1 µM]	-23%	/	-37%
COc1cc(C)c(C2NC(=O)c3ccccc3N2)cc1C (stereo unspecified)	?	/	/	6%	-6%	16%	/	/
Cc1ccc(C(=O)N2N=C(c3ccccc3)CC2(O)C(F)(F)F)o1 (stereo unspecified)	20%[46.1 µM]	/	-1%	-9%	?	-3%	/	-1%
CCOC(=O)c1ccc2c(c1)n(CC)c(C)[n+]2CC	5%	/	0%	12%	1%[46.1 µM]	-11%	/	2%
O=C(CCc1ccccc1)NCCS(=O)(=O)N1CCN(c2ccccc2)CC1	-5%	/	-3%	-15%	-8%[46.1 µM]	5%	/	/
COc1cc(C2NC(=S)NC3=C2C(=O)CCC3)ccc1O (stereo unspecified)	16%[46.1 µM]	/	1%	-7%	6%[46.1 µM]	-2%	/	9%
COC(=O)CN(c1ccccc1)S(=O)(=O)c1cc(Br)ccc1OC	0%[46.1 µM]	/	0%	6%	-24%[46.1 µM]	6%	/	-2%
CN(C)CCNC(=O)COc1ccc(Cl)cc1Cl	-14%	1%	13%	-19%	14%	12%	-2.9%	-8%
COc1cccc(N2CCN(CC(=O)Nc3nc4c(s3)CC(C)CC4)CC2)c1 (stereo unspecified)	-17%[14.3 µM]	5%	-7%	-22%	-29%	19%	-4.9%	-64%
CC(=O)Nc1nc(-c2ccccc2)c(-c2ccccc2)o1	-11%	4%	-5%	-3%	9%[46.1 µM]	2%	-1.8%	-23%
CC1=NN(c2nc3ccccc3[nH]2)C(=O)C1Cc1ccccc1 (stereo unspecified)	?	/	-6%	16%	?	?	/	-59%

(more compounds)
SMILES	Lassa entry inh	Cruzain noTriton	SARS PLP yeast	2A StopGo	Marburg entry inh	RE007 growth inh	Cruzain inh Det	NS1 inh
Cc1ccnc(SCc2cc(=O)c(OC(=O)c3ccc(Br)o3)co2)n1	1%	-12%	-46%	-13%	5%	14%	-19%	-12%
CC(=O)c1ccc(NC(=O)CCCN2C(=O)COc3ccc(C)cc32)cc1	0%[46.1 µM]	/	-1%	-17%	15%[46.1 µM]	-2%	/	-5%
C/C(=N\Nc1ccc(C(=O)c2c(C)cc3ccccn23)cc1[N+](=O)[O-])c1ccc(O)cc1	/	/	0%	-26%	-1%	0%	/	3%
O=C(COC(=O)c1cccc(Br)c1)NCCNC(=O)COC(=O)c1cccc(Br)c1	/	/	0%	-4%	/	-2%	/	-5%
Cc1nc2cc(C(=O)N3CCN(C)CC3)ccc2n1C	/	/	-2%	5%	/	-5%	/	12%
